Screening data deposited in PubChem BioAssay by several laboratories.
BJeLR viability: BJeLR cell viability loss. BJeLR (HRASV12) viability, CellTiter-Glo ATP luminescence, 48 h; reference of the scale not given here. inhibition, % (concentration not given with the values). 300,000 compounds, 0.17% hits. AID 1554;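 active = replicate mean above 50%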;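 also: 50 nL library stock added to about 25 µL; numbers are from one replicate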
PrP 5UTR inh: inhibition of PrP 5' UTR reporter expression | 340,000 compounds, 0.35% hits | AID 488862 | cell-based PrP 5' UTR mRNA reporter, plate reader | inhibition, % (test concentration not listed);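 active = every replicate at 50% or more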;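 also: 0 = median of the neutral control wells; tested in H4 reporter cells; numbers are from one replicate; inactives centre near -14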
RN4220 kill: S. aureus RN4220 growth inhibition | 330,000 compounds, 0.33% hits | inhibition, % (concentration not given with the values) | OD600, 16 h;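 active = z-score of -3 or lower and OD600 up to 0.18 on both plates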;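 also: plate controls were untreated cells for no effect and reference antibiotic for full effect; stock transfer was 100 nL into about 80 µL; one replicate is shown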
Mtb hypoxia inh: reduces hypoxia-regulated biosensor signal in M. tuberculosis. M. tuberculosis hypoxia-regulated fluorescent reporter, fluorescence. fluorescence inhibition, % (no concentration beside the values). 300,000 compounds, 0.1% hits. AID 1159583;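 active = 35 to 45% if threefold the growth effect, above 45% if 1.5-fold the growth effect; inactive = the rest, general growth blockers included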;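 also: wells of about 50 µL received 100 nL stock; 0% = vehicle wells and 100% = reference inhibitor wells; whole bacteria with a GFP reporter of the hypoxia response; strong numbers were not always called active; many hits fall short of the cut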
Autofluor counter: flagged as autofluorescent in microsphere protease counterscreen; compound autofluorescence counterscreen, microsphere flow cytometry; hits give high values; fluorescence intensity (concentration not given with the values); 360,000 compounds, 3.1% hits;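 active = at least 3 SD above the mean of all compounds, about 16000 in these data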;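 also: 100 nL of 1 mM stock went into each well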
Sa ugtP lethal: growth inhibition of S. aureus ugtP deletion strain | S. aureus RN4220 ugtP deletion, OD600 growth, 16 h; some inactives read as strong as hits | growth inhibition, % (test concentration not listed) | 330,000 compounds, 0.54% hits | AID 1259309;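 active = z-score under -3 and OD600 up to 0.15 on both plates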;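 also: plate controls were untreated wells for no effect and antibiotic for full effect; wells of about 80 µL received 100 nL stock; the first replicate is given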
Mtb hypoxia inh growth: second read-out of Mtb hypoxia inh, no call of its own (marks repeat the call); growth inhibition, %; measured here: M. tuberculosis growth (absorbance);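 0% = vehicle and 100% = reference antibiotic; read after six days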
Starred values were filed as active, the others as inactive; . = not tested or not shown.

SMILES	BJeLR viability	PrP 5UTR inh	RN4220 kill	Mtb hypoxia inh	Mtb hypoxia inh growth	Autofluor counter	Sa ugtP lethal
COc1ccccc1OCCOCCOc1ccc(C)cc1[N+](=O)[O-]	-2	-21	5.8	9	7	2530	-1
Cn1nccc1NS(=O)(=O)c1ccc(C(C)(C)C)cc1	1	-10	5.6	9	10	6830	1
NC(=O)C1CCN(S(=O)(=O)c2ccccc2[N+](=O)[O-])CC1	11	-10	2.2	3	-4	4292	0
CCOc1ccc(NC(=O)C2CCCN2C(=O)OCc2ccccc2)cc1 (configuration not stated)	5	9	6.1	7	10	4940	6
Cc1nc2n(n1)CC(O)CS2 (configuration not stated)	8	-10	4.9	4	0	23205*	12
O=C(COc1ccc(Br)cc1CO)Nc1ccccc1	-5	-43	3.2	19	-1	10580	-1
Cc1ccc[n+](CC(=O)c2ccc(NC(=O)c3ccccc3)cc2)c1	0	-9	1.0	-2	0	2359	-3
Cc1ccccc1OCc1nc(-c2ccc(Br)o2)no1	7	-45	1.3	3	5	4229	10
CSc1c(CC(=O)Nc2ccc(F)cc2)n(Cc2ccccc2)c2ccccc12	0	-28	-3.9	-6	2	2573	-9
O=C(O)c1ccc(NS(=O)(=O)c2ccc(N3C(=O)CCC3=O)cc2)cc1	-11	-20	2.9	1	3	3663	5
O=C(Cn1c(=O)oc2cc(S(=O)(=O)N3CCCC3)ccc21)N1CCN(c2ccccn2)CC1	2	-8	4.7	1	-6	4286	-2
NC(=O)COc1ccccc1/C=C1/SC(=O)N(CC(=O)N2CCc3ccccc3C2)C1=O	-5	-21	-2.2	-10	-1	9944	-8
COC(=O)c1cc(S(=O)(=O)NCC2CCN(CCc3ccc(OC)cc3)CC2)cn1C	0	-13	-1.3	-4	-6	6265	9
Clc1ccc(SCCOCCN2CCCCCC2)cc1	-3	20	0.6	8	3	4862	3
O=C(Cc1cccc(NC(=O)C2CCCN(C(=O)c3ccccc3)C2)c1)Nc1cccc(C(=O)N2CCCCC2)c1 (configuration not stated)	.	-26	6.1	-1	3	3391	7
O=C(CNC(=O)c1ccc(Cl)cc1)N/N=C/c1cccnc1	6	-24	.	.	.	4474	.
CCOc1ccc(CNC(=O)CCS(=O)(=O)c2ccc3c(c2)NC(=O)CO3)cc1OC	-13	-20	4.0	0	-5	6480	8
CCn1c(C)c(C)c2cc(C(=O)NC3CCCCCC3)ccc21	8	-36	6.6	-3	-6	4850	10
CN1CCN(C(=O)CCCN2C(=O)/C(=C/c3ccc(Cl)cc3)SC2=S)CC1	.	-14	0.2	3	2	8807	48
COc1ccc(S(=O)(=O)Nc2ccc(C)cc2)cc1N(C)S(=O)(=O)c1ccc(Cl)cc1	-10	-29	-0.2	10	-4	11367	-5
COc1ccc(CCNC(=O)c2cc(-c3ccccc3)c(N3CCOCC3)s2)cc1OC	0	-45	0.9	.	.	6846	10
Cc1cccc(CN2CCC(n3nccc3NC(=O)c3ccccc3C)CC2)n1	-4	-8	2.6	8	15	4170	6
O=S(=O)(c1cccs1)N1CCN(c2ccc(O)cc2)CC1	-7	7	7.0	13	0	3507	3
O=C(NC(=S)Nc1ccc(Cc2ccncc2)cc1)c1ccc(F)cc1	3	-5	4.2	16	42	4195	8

Reprinted from the part before: 5 entries, followed by the next part.
SMILES	BJeLR viability	PrP 5UTR inh	RN4220 kill	Mtb hypoxia inh	Mtb hypoxia inh growth	Autofluor counter	Sa ugtP lethal
COc1ccc(S(=O)(=O)Nc2ccc(C)cc2)cc1N(C)S(=O)(=O)c1ccc(Cl)cc1	-10	-29	-0.2	10	-4	11367	-5
COc1ccc(CCNC(=O)c2cc(-c3ccccc3)c(N3CCOCC3)s2)cc1OC	0	-45	0.9	.	.	6846	10
Cc1cccc(CN2CCC(n3nccc3NC(=O)c3ccccc3C)CC2)n1	-4	-8	2.6	8	15	4170	6
O=S(=O)(c1cccs1)N1CCN(c2ccc(O)cc2)CC1	-7	7	7.0	13	0	3507	3
O=C(NC(=S)Nc1ccc(Cc2ccncc2)cc1)c1ccc(F)cc1	3	-5	4.2	16	42	4195	8
Cc1ccc(S(=O)(=O)N2CCN(C(=O)c3nn(C(C)C)c(=O)c4ccccc34)CC2)cc1C	-5	-3	-0.4	.	.	2582	0
Cc1oc2c(cc(NS(=O)(=O)c3ccc(C(C)C)cc3)c3ccccc32)c1C(=O)O	-3	-30	.	.	.	5582	.
O=C(CSc1cccc[n+]1[O-])C12CC3CC(CC(C3)C1)C2	-1	-29	5.1	10	22	4628	11
C=C(C)CNC(=S)NN=Cc1ccc(NC(C)=O)cc1	.	.	5.9	18	4	.	9
O=C(NS(=O)(=O)c1ccc(Cl)s1)c1ccccc1	21	-15	3.9	0	0	3829	12
CN(C(=O)COC(=O)c1ccc(=O)n(Cc2ccccc2)n1)C1CCS(=O)(=O)C1 (configuration not stated)	-2	-4	4.2	3	11	5148	2
Cn1c(SCC(=O)NNC(=O)Nc2ccccc2)nnc1-c1ccccc1	-6	-41	1.2	11	14	4022	2
COc1ccc(C(=O)Nc2ccccn2)cc1S(=O)(=O)N1CCOCC1	-3	-17	1.4	2	2	5890	0
CCCc1cc(=O)oc2c3c(cc(OCC(=O)NCc4ccccn4)c12)OC(C)(C)CC3	5	-18	4.4	.	.	5061	4
O=C(C1CCCO1)N1CCN(c2ncccn2)CC1 (configuration not stated)	0	-3	1.4	9	8	6471	4
CC(C)c1nc(SCC(=O)Nc2ccc(N(C)C)cc2)c2ccccc2n1	-2	-38	8.8	12	6	4484	4
CC(=O)NC(CC(=O)OCC(=O)N1CCN(S(=O)(=O)c2ccc(C)cc2C)CC1)c1ccccc1 (configuration not stated)	.	4	6.2	13	2	2680	11
O=C(CN1CCOCC1)N/N=C/c1ccc(-c2ccc(C(=O)O)cc2)o1	12	-14	.	.	.	3795	.
O=Cc1ccc(C(=O)OCC(=O)NCCC2=CCCCC2)cc1	12	-20	4.1	3	0	6241	16
CN(C)c1ccc(/C=C(/NC(=O)c2ccccc2)C(=O)NN=Cc2ccc([N+](=O)[O-])c(O)c2)cc1	.	.	14	-1	6	.	0
O=C(C[n+]1cccc(C(=O)NN=Cc2ccc(Br)cc2)c1)c1ccccc1	.	.	-0.2	15	17	.	10
COCCn1c(SCC(=O)Nc2ccc(S(=O)(=O)N3CCOCC3)cc2)nc2ccccc21	4	-29	1.4	5	8	23038*	-4
Cn1ccnc1Sc1ccc(/C=N/NC(=O)c2ccccc2O)cc1[N+](=O)[O-]	5	-25	.	.	.	2058	.
O=C(c1ccc2c(c1)OCCO2)N1CCCC(CNS(=O)(=O)c2cccs2)C1 (configuration not stated)	8	-8	5.1	4	-5	4425	3
Cc1ccc(-n2nnnc2SCC(=O)NC(=O)Nc2ccc3c(c2)OCCO3)cc1	-1	-318	2.3	13	5	8516	10
COC(=O)CNC(=O)CSc1nc2sccc2c(=O)n1-c1ccccc1	-4	-2	2.4	3	-2	6456	-9
CCOC(=O)N1CCN(Cc2nc3cc(NC(=O)c4ccco4)ccc3n2CC)CC1	2	-39	-1.0	6	8	5332	6
O=C(c1ccco1)c1cn(CC(=O)N2CCCC2)c2ccccc12	-11	-9	3.7	6	2	3683	9
Cc1ccc(C(=O)N2CCN(S(=O)(=O)c3cc(Br)ccc3Br)CC2)o1	-22	5	.	.	.	3900	.
O=C(OC1CCN(c2ncc(C(F)(F)F)cc2Cl)CC1)c1ccccc1	9	-15	5.1	8	13	22198*	-6
CCOC(=O)c1c(CN2CCN(c3ccccc3)CC2)oc2cc(Br)c(O)cc12	1	-6	2.5	-7	10	3707	-24
CCN1C(=O)C(=CN2CCCc3ccccc32)SC1=S	.	.	10	0	0	.	3
CCOC(=O)c1c(/N=C/N(C)C)sc(C(=O)OC)c1C	8	-32	.	.	.	10680	.
CC(=O)Nc1ccc(S(=O)(=O)N2CCC(NC(=O)C(Cc3ccc(C)cc3)NC(C)=O)CC2)cc1 (configuration not stated)	-14	12	2.8	4	-2	3119	-2
CC1CN(C(NC(=O)c2ccccc2)C(Cl)(Cl)Cl)CC(C)O1 (configuration not stated)	.	-15	1.4	5	-3	4145	3
CC1CCC(C(C)C)C(OC(=O)Cn2c(COc3ccccc3)[n+](C)c3ccccc32)C1 (configuration not stated)	29	-13	101*	.	.	3595	100*
O=C(CCCc1nc(-c2ccccc2Cl)no1)NC1CCCC1	4	38	0.8	7	-2	5847	-2
N#C/C(=C\c1ccc(-c2ccccc2[N+](=O)[O-])o1)C(N)=O	3	-20	-6.5	5	-3	5201	6
Cc1c(C(=O)/C=C/c2cccs2)oc2ccc(F)cc12	2	-135	5.4	.	.	2921	1
CCc1cc2c(cc3c(=O)n(CC(=O)NCCCN(CC)CC)nc(CC)n32)s1	-6	-32	4.4	8	5	8388	7
Cc1ccc(-c2noc(CSc3nnc(Cc4ccccc4)n3-c3ccc(Cl)cc3)n2)cc1	15	-21	0.2	0	5	8330	-30
CNC(=O)C(=O)NCC1OCCN1S(=O)(=O)c1ccc2c(c1)OCCO2 (configuration not stated)	4	-8	3.5	5	3	2283	0
CC(NC(=O)C(=O)NCCN1CCN(C(=O)c2ccccc2Br)CC1)c1ccccc1 (configuration not stated)	-7	-16	0.5	-9	-1	5248	1
O=c1c2cnn(-c3ccccc3)c2ncn1Cc1cccc(Cl)c1	.	14	4.2	10	5	5547	13
C/C=C/C(=O)N1CC2(CC(c3cccc(NC(=O)CC(c4ccccc4)c4ccccc4)c3)=NO2)C[C@H]1C(N)=O (some centres not stated)	-5	-19	.	.	.	3963	.
CCC1=C(OC(=O)N(CC)CC)N2C(=O)OC(=NCCOC)[C@]2(Cc2ccccc2)[C@H]2C1=CC[C@H]1C(=O)NC(=O)[C@H]12	-1	-11	.	.	.	3652	.
COc1ccccc1N1CC(C(=O)NC2CCCCCC2)CC1=O (configuration not stated)	.	-22	2.6	10	11	4636	6
CN(Cc1ccc(Cl)cc1)C(=O)COC(=O)c1ccc(-c2ccc(O)cc2)cc1	.	-2	3.3	2	3	3371	1
COCc1cc(=O)n2[nH]c(SC)nc2n1	4	-32	6.9	8	7	6065	0
CC(=O)c1ccc(NC(=O)COC(=O)c2ccccc2Nc2ccccc2)cc1	5	-5	4.3	2	9	1986	11
O=C(O)C1CC1(c1ccccc1)c1ccccc1 (configuration not stated)	2	-5	4.4	-14	-9	3728	7
O=C(NCc1cccc2ccsc12)c1cccs1	.	-1	6.5	10	15	3950	-5
C=C(C)CSc1nncn1/N=C/c1ccc(OC)cc1	-1	-36	.	.	.	7773	.
O=C(Nc1nccs1)c1ccc(NC(=O)C2CC=CCC2C(=O)O)cc1 (configuration not stated)	-6	1	-1.8	-4	14	3520	-12
C[C@H](CO)N1C[C@H](C)[C@@H](CN(C)S(=O)(=O)c2ccccc2)Oc2ccc(NS(=O)(=O)c3ccccc3)cc2C1=O	.	-11	2.8	1	6	3768	0
Cc1cc(C)nc(SCC(=O)Nc2ccc(N3CCOCC3)cc2)n1	-15	-15	1.2	-4	1	11382	5
CS/C(=C\[N+](=O)[O-])Nc1ccccc1	-1	-2	.	.	.	3444	.
CCCC(=O)NCCc1nc2ccccc2n1C	-6	-36	3.2	10	13	3789	-3
CCCCCC(=O)Nc1cccc(C2=NOC3(C2)CC(C(N)=O)N(C(=O)c2ccccc2)C3)c1 (configuration not stated)	.	.	8.0	12	10	.	5
O=C(CC1CC=CCCC(Cc2ccc(F)cc2)C(=O)OCC(Cc2c[nH]c3ccccc23)NC1=O)NCCO (configuration not stated)	.	.	4.6	-1	9	.	2
CCc1ccc(-c2cc(C(F)(F)F)n3nc(C(=O)Nc4c(C)nn(Cc5ccccc5C)c4C)cc3n2)s1	-12	-7	7.8	-1	9	19939*	36
Cc1cc(C)nc(SCc2ccc(C(=O)N/N=C/c3ccccn3)cc2)n1	0	-18	.	.	.	4208	.
COc1ccccc1NS(=O)(=O)c1ccc(NC(=O)Cc2cccs2)cc1	-1	-19	8.2	4	1	2008	-3
CN(C(=O)c1ccc(Cl)nc1)C1(c2ccccc2Cl)CCCCC1=O (configuration not stated)	0	-39	8.6	9	13	4037	6
O=C(NCCNc1ccc([N+](=O)[O-])cc1)c1ccc(Cl)cc1	-10	-14	0.7	-2	3	5140	-4
CC1(C)CN(O)CCN1O	-16	-15	2.9	6	5	1953	-4
